Menin MLL FP FL: menin-MLL binding inhibition, fluorescein peptide; Fluorescence polarization, fluorescein-MLL peptide displacement from menin; FP activity change, % at 61.4 µM; 290,000 tested, under 10 active; inconclusive = falling polarisation curve, or a change in total fluorescence; inactive = total fluorescence flat and polarisation flat or rising; no compound was filed as active; the % refers to the polarisation; negative = inhibition;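 note: % of control where 0% means no effect; inhibitors lower the polarisation; unlabelled MLL peptide was the positive control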
TRPV1 potentiator: potentiators of human vanilloid receptor 1 (TRPV1) | Q8NER1 | TRPV1-expressing cells, Fluo-8 calcium influx, capsaicin EC20 potentiation; host cell line not named in the record; control for the full effect not named in the record | potentiation, % at 8.33 µM | actives 0.02% (n = 320,000); active means potentiation above 80%; inconclusive means 30% to 80%; inactive means below 30%; note: 0% is about no effect
Target sequence (Q8NER1 whole entry, looked up): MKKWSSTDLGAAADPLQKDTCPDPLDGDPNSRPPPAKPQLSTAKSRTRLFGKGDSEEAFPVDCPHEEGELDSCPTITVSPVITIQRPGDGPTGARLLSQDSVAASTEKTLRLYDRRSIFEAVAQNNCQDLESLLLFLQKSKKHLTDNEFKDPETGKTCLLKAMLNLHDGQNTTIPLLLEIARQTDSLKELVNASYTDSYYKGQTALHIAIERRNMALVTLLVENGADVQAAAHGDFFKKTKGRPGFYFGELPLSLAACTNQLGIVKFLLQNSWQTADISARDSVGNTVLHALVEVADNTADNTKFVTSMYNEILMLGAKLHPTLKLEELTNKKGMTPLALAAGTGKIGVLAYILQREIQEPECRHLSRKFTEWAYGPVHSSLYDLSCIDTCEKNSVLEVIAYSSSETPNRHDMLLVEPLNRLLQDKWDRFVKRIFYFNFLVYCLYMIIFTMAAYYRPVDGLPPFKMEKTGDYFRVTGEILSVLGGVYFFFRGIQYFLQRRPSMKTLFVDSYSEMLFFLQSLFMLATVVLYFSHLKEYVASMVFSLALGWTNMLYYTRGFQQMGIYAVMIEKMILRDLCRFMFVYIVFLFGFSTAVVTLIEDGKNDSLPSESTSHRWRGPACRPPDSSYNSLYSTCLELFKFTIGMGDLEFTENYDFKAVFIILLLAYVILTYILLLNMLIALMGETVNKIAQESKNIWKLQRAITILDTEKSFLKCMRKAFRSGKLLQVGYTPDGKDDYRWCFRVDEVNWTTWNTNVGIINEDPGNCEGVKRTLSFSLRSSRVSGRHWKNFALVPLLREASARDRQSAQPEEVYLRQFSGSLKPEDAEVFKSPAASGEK
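Fluo-8 calcium influx in TRPV1-expressing cells, kinetic read (ex 480/em 520 nm). Compound added and read 3 min for agonist activity, followed by capsaicin at EC20 final and 2 min further read for enhancement.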
gsp antag: antagonists of gsp mutant (McCune-Albright syndrome); gsp-mutant cells, cAMP HTRF, 30 min; control for the full effect not named in the record; Potency, µM (titrated, usually from 76.9 µM), inactives show top-dose activity change, negative = inhibition, usual class: inhibitors; actives 0.4% (n = 340,000); active = falling curve of any shape with a large fitted effect; inconclusive = falling curve, mostly with a smaller effect; inactive = flat or rising curve; cell line not stated here;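 note: intracellular cAMP measured with PDE inhibitor Ro 20-1724 present during compound exposure; potency is the fitted concentration of half-maximal effect; % is set by controls: 0 for no effect and ±100 for the full control effect; nearly all actives have a fitted effect of over 65% in size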
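G418-selected cells were plated in DMEM/10% FBS for 16-24 h at 37C, then treated with compounds plus the PDE inhibitor […] (300 uM solution added) for 30 min at 37C. Intracellular cAMP was measured by HTRF after 30 min lysis at room temperature.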
ClpP mod: qHTS Assay for Activators of ClpP; purified B. subtilis ClpP, FRET peptide cleavage, 20 min; actives 1.9% (n = 340,000); Potency, µM (doses to about 57.5 µM), without a hit: at the top dose activity change, negative = active; active = well fitted falling curve with a large enough effect; inconclusive = small, poorly fitted or top-dose-only effect; inactive = no such curve, though single readings can be large or run the other way; note: potency is the fitted concentration of half-maximal effect; the source files actives as falling curves though it sought activators and does not explain the sign; nearly all actives have a fitted effect of over 65% in size; many hits overshoot -100%
Target sequence (P80244 whole entry, looked up): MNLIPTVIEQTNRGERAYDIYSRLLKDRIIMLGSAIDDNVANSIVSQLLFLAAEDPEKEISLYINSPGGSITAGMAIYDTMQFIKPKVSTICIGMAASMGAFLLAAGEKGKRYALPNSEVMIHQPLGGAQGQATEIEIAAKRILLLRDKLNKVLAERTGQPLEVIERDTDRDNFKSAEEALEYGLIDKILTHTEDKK
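Buffer: 100 mM Tris/HCl pH8, 100 mM KCl, 0.05% low protease BSA, 2.5% glycerol, 0.01% Tween-20. ClpP 10 microg/mL final; 20 min RT; delta FRET normalized to ADEP and DMSO controls.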
gsp ag: gsp mutant agonism. Potency, µM (series often up to 76.9 µM), without a hit: at the top dose activation (cAMP increase), most hits filed as activators. AID 624287. actives 0.13% (n = 340,000). gsp mutant cells, cAMP HTRF, 30 min; control for the full effect not named in the record; active = well fitted activation curve with a large enough effect; inconclusive = small, poorly fitted or top-dose-only effect, or another doubt; inactive = no such curve, though single readings can be large or run the other way; cell line not stated here;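 note: phosphodiesterase inhibitor Ro 20-1724 added with compounds to block cAMP breakdown; potency is the fitted concentration of half-maximal effect; nearly all actives have a fitted effect of over 60% in size; about a fifth of the inactives were tested at one dose only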
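Cells stably selected in G418 were plated at 2000/well, grown 16-24 hr, then given compounds in DMSO with the PDE inhibitor […] (300 uM solution added) for 30 min at 37C; cAMP was read by HTRF.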
CtBP-E1A inh: CtBP/E1A binding inhibition; AlphaScreen GST-E1A/His-CtBP binding, 1536-well; active compounds read low; control for the full effect not named in the record; activity change, % (concentration not given with the values); actives 0.49% (n = 340,000); in the data active means activity change below about -65%; inconclusive means about -30% to -65%; inactive means above about -30%; note: % is set by controls: 0 for no effect and ±100 for the full control effect
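Homogeneous bead-based format: GST-tagged E1A captured on glutathione donor beads, His-tagged CtBP on nickel acceptor beads; compounds precede bead addition by 2 h at 37 °C.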
Sfp PPTase inh: inhibitors of Bacillus subtilis Sfp phosphopantetheinyl transferase. Biochemical Sfp PPTase activity, qHTS. Potency, µM, without a hit: max response, negative = inhibition, most hits filed as inhibitors. actives 3.5% (n = 310,000). AID 1490; active = well fitted inhibition curve with a large enough effect; inconclusive = small, poorly fitted or top-dose-only effect, or another doubt; inactive = no such curve, though single readings can be large or run the other way;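 note: the enzyme is Sfp with the accession as filed and its product quenches rhodamine fluorescence; potency is the fitted concentration of half-maximal effect; 0% = enzyme reaction without inhibitor and -100% = no enzyme wells; top concentration of the series not given in the record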
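Sfp 15 nM + cpd, 15 min RT; start w/ rhodamine-CoA 5 uM, BHQ-2-YbbR 12.5 uM (final); 50 mM Hepes pH 7.6, 10 mM MgCl2, 0.01% NP-40, 0.01% BSA; read 525/598 nm at 0 and 30 min.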
* = called active by the depositor; ? = inconclusive; / = no result given; & = joins results of further samples; [ ] = another dose, or the depositor's remark.

#	Structure	Menin MLL FP FL	TRPV1 potentiator	gsp antag	ClpP mod	gsp ag	CtBP-E1A inh	Sfp PPTase inh
1	COc1ccccc1CNC(=O)Cn1nnc(-c2ccncc2)n1	2.0	4	3%	-3.2%	-32%[inhibitor]	-1	-3%
2	CN1CCN(C(=O)Nc2ccccc2)CC1	0.9	2	13%	/	-24%[15.4 µM]	-11	-25%
3	CCc1cccc(CC)c1NC(=S)N1CCn2cccc2C1c1ccncc1 (stereo not given)	2.8	1	-6%	/	23%[15.4 µM]	2	15%
4	C=CCn1c(=N)n(CC(=O)OC)c2ccccc21	3.4	-1	1%	0.1%	9%	3	5%
5	CCOc1ccccc1N1CCN(CC(=O)Nc2cc(C)on2)CC1	-2.6	6	3%	-1.0%	14%[15.4 µM]	-9	16%
6	COc1ccc(N2C(=O)CCC(C(=O)N3CCCCC3)C2c2ccc(F)cc2)cc1 (stereo not given)	-4.8	-11	3%	13µM*	-4%	5	10%
7	O=C(Nc1cccc(-n2cnnn2)c1)c1ccc(OC(F)(F)F)cc1	0.5	-1	2%	-7.7%	-54%[inhibitor]	-1	11%
8	O=C(NNC(=S)Nc1ccc(Cl)cc1)c1ccccc1OC(F)F	3.8	1	-7%	9.4%	-1%	-11	15%
9	Cc1ccccc1OCCC(=O)NCCc1ccc(S(N)(=O)=O)cc1	-2.1	-6	8%	-2.1%	-29%	-4	8%
10	CO/N=C/c1c(-c2ccccc2)nn(C)c1Cl	0.0	-2	4%	/	7%[15.4 µM]	7	14%
11	CN(Cc1ccccc1)c1ncnc2ccc(Br)cc12	1.9	1	3%	-0.4%	?	11	11%
12	Fc1ccc(Cn2nnc3ccccc32)cc1	-1.5	17	1%	-4.0%	-9%	/	5%
13	Cn1c(=O)c2c(-c3cccc(F)c3)c3c(nc2n(C)c1=O)-c1ccccc1C3O (stereo not given)	-0.6	-3	/	/	/	/	10%
14	NC(=O)c1sc2nc3c(c(-c4ccco4)c2c1N)CCCC3	3.8	0	0%	-1.5%	8%	/	-12%
15	COc1ccccc1[C@H]1C(c2cccc(C)c2)=NN(c2ccccc2)[C@@H]1CO	20	/	6%	4.4%	/	23	13%
16	C=CCn1c(CSc2nc3ccccc3s2)nnc1SCC(=O)NCCN1CCOCC1	2.0	0	2%	-0.3%	-1%	11	3%
17	NC1=C([N+](=O)[O-])C(c2ccccc2)C2=C(CCCC2=O)O1 (stereo not given)	2.7	-4	-4%	-0.9%	0%	/	-3%
18	CC1(C)NC(=O)N(CCC(=O)Nc2cc(C(F)(F)F)ccc2Cl)C1=O	/	/	8%	-4.5%	-38%[inhibitor]	0	/
19	CC(=O)NCc1ccc(-c2csc(N)n2)s1	0.7	1	5%	-6.9%	-24%	1	?
20	CCc1c(C)nc2c(-c3ccccc3OC)c(C)[nH]n2c1=O	1.4	-23	-8%	/	31%	-8	9%
21	CN(C(=O)CSC1=NCCS1)c1ccccc1	-0.5	-1	4%	39%	4%	5	10%
22	COc1ccc(-c2c(C)nn(-c3ccccc3)c2N)cc1OC	-2.1	6	-1%	-2.5%	-54%[inhibitor]	-26	14%
23	CCCC(=O)Nc1nn(CC(C)C)c2nc3cc(C)ccc3cc12	5.5	-22	3%	-8.8%	0%	-7	-2%
24	CC(NCc1cccs1)C(=O)Nc1cc(Cl)cc(Cl)c1 (stereo not given)	0.1	-14	-6%	/	3%[15.4 µM]	17	-16%
25	CCCN(C(=O)c1cn(CC)c2nc(C)ccc2c1=O)c1c(N)n(Cc2ccccc2)c(=O)[nH]c1=O	-0.4	18	12%	/	-7%[15.4 µM]	18	11%
26	CCCCOc1ncnc2c1[nH]c1ccc(C)cc12	5.1	/	-4%	/	-4%[15.4 µM]	4	25%
27	Cc1cccc(C)c1OCc1cc(C(=O)N2CCN(c3ccc(F)cc3)CC2)no1	/	5	4%	-0.3%	6%	2	-6%
28	Cc1onc(-c2ccccc2)c1C(=O)N1CCCSC1=Nc1ccccc1	-0.8	?	4%&-3%	0.5%	12%&-19%	-16&0	14%
29	c1csc(Cn2nnnc2CN2CCN(c3nc4ccccc4s3)CC2)c1	2.7	7	?	2.3%	0%	-1	-10%
30	CC(=O)c1cccc(NC(=O)CNC(=O)Cc2cccc3ccccc23)c1	/	/	-7%	/	6%	-7	/
31	Cc1cc(NC(=O)CSc2[nH]c(=O)cc(C(F)(F)F)c2C#N)no1	/	?	-4%	-8.2%	0%	-5	/
32	COCCNC(=O)C(c1ccc(C)o1)N(C(=O)c1snc(C(N)=O)c1N)c1cccc(C)c1 (stereo not given)	2.5	7	-10%	?	-30%	-6	-17%
33	CN1CCN(C(=O)C2=C[C@H](c3coc4ccccc4c3=O)C[C@H](OCCCCO)O2)CC1	-3.2	4	-1%	-3.3%	/	-17	20%
34	Cc1cc(N(C)Cc2ccccc2)nc2cc(O)ccc12	11	?	-6%	?	7%[15.4 µM]	-1	4%
35	CC(=O)c1cccc(CN2CCCC(CCC(=O)NCc3ccccc3F)C2)c1 (stereo not given)	-1.0	6	8%	/	1%[15.4 µM]	2	1%
36	CCOC(=O)c1sc(=NC(=O)c2c(F)cccc2F)n(C)c1C	0.0	9	1%	-2.3%	28%	/	13%
37	CS(=O)(=O)c1ccc(C(=O)NNC(=O)c2cc(-c3ccccc3)n[nH]2)cc1	/	/	2%	/	-16%[15.4 µM]	2	/
38	Cn1cc(C(=O)Nc2ccc(F)c(Cl)c2)cn1	4.1	-44	11%	0.2%	6%	-6	-10%
39	Nc1nc(Nc2ccc(Cl)cc2Cl)nc(C(F)(F)F)n1	2.6	-2	5%	8.5%	19%	-1	14%
40	Brc1cc2c(cc1CSc1ncccn1)OCO2	-1.2	10	-8%	/	-7%[15.4 µM]	18	-12%
41	CCCN(C(=O)CSc1nnc(-c2ccoc2C)n1N)C1CCS(=O)(=O)C1 (stereo not given)	0.4	-17	-5%	1.3%	14%	-1	9%
42	C[C@@H](NC(=O)[C@@H]1Cc2ccccc2CN1)C(=O)NC1CCCC1	/	26	3%	-0.8%	6%	/	-3%
43	Cc1ccc(C(=O)N/N=C/c2cccc3ccccc23)cn1	/	/	-5%	/	12%[15.4 µM]	-7	/
44	COc1ccc(Cl)cc1C(=O)NCCN(C)C	-0.6	4	10%	-9.8%	9%	-7	12%
45	CN(C)S(=O)(=O)c1ccc(N2CCCC2)c(C(=O)NNC(=O)c2ccc(Br)cc2)c1	/	12	10%	-3.2%	-4%	-2	/
46	COCCNC(=O)c1cc2c(=O)n(C)c3ccccc3c2n1C	-0.4	4	-1%	3.7%	-99%[inhibitor]	-1	24%
47	CCCCCn1c2nc3ccccc3nc2c2c(=O)n(CC3CCCO3)c(C)nc21 (stereo not given)	-0.8	3	/	/	/	/	1%
48	NS(=O)(=O)c1ccc(CCNc2nc(CN3CCOCC3)nc3sc4c(c23)CCC4)cc1	5.0	5	-8%	-2.2%	?	8	-10%
49	COc1ccc(S(=O)(=O)N2CCOCC2)cc1NC(=O)CN1C(=O)NC(C)(C2CC2)C1=O (stereo not given)	/	4	5%	-1.3%	9%	5	/
50	CC(=O)Nc1ccc(Nc2nc(C)cc(C)n2)cc1	-0.5	10	-1%	-1.1%	-6%[15.4 µM]	-17	10%

(cont.)
#	Structure	Menin MLL FP FL	TRPV1 potentiator	gsp antag	ClpP mod	gsp ag	CtBP-E1A inh	Sfp PPTase inh
51	O=S1(=O)[C@H]2C[C@@H]3C=C[C@@]2(CN1Cc1cccc(Cl)c1)O3	2.8	-12	12%	-0.3%&-4.7%	-15%	/	14%
52	N#CC(=C(O)COC(=O)CCCNC(=O)c1ccc(Cl)cc1)c1nc2ccccc2[nH]1	/	/	-17%	/	-1%	-18	/
53	Cn1nnnc1SCC(=O)NCCCc1ccccc1	1.3	11	3%	-2.8%	-24%	0	4%
54	COc1ccc(NC(=O)CN2C(=O)NC(C)(c3ccccc3)C2=O)cc1Cl (stereo not given)	1.5	-2	-14%	/	1%[15.4 µM]	-2	25%
55	O=C(NC1CCN(C(=S)NCc2ccco2)CC1)c1cccc(F)c1	14	-5	/	/	-9%[15.4 µM]	-14	13%
56	C=CCn1c(SC)nnc1C1COc2ccccc2O1 (stereo not given)	-3.6	16	0%	1.8%	-8%[15.4 µM]	0	13%
57	O=C(c1cc2cc(Br)ccc2o1)N1CCN(c2ccccc2)CC1	/	-3	1%	-1.3%	-14%	5	2%
58	COc1ccccc1P(=O)(c1ccccc1)c1ccccc1NC(C)=O (stereo not given)	2.2	-1	-1%	-2.9%	0%	0	5%
59	O=C(Oc1cccc([N+](=O)[O-])c1)C1CCN(C(=O)c2ccc(F)cc2)CC1	/	?	-2%	-8.8%	?	6	17%
60	CCC(C)c1ccc(NC(=O)c2cccs2)cc1 (stereo not given)	2.4	-4	-20%	0.1%	-8%	14	9%
61	O=C(COc1ccc(Br)cc1)OCC(=O)N1CCOCC1	/	/	-7%	0.8%	-5%	/	/
62	O=C(NCc1ccc2c(c1)OCO2)c1cc(-c2ccccc2Cl)on1	1.1	3	1%	-10%	-2%	6	4%
63	O=C(Nc1nc(-c2ccccn2)cs1)c1cc(S(=O)(=O)N2CCOCC2)ccc1F	/	-1	-14%	-6.4%	14%	?	/
64	COc1ccc(C(NCC(=O)Nc2c(C)cccc2C)c2ccccc2)cc1 (stereo not given)	-9.1	-8	-33%	0.0%	-5%	24	?
65	CCOC(=O)C(C(C)=O)C(c1ccc(OCCC(C)C)cc1)C(C(C)=O)C(=O)OCC (stereo not given)	0.9	25	1%	-2.1%	-5%	1	9%
66	NC(=O)CSc1nc2scc(-c3ccco3)c2c(=O)n1-c1ccccc1	19	-6	-9%	-0.4%	-28%	3	6.3µM*

Some of these compounds in order of length of the SMILES, descending.
#	Structure	Menin MLL FP FL	TRPV1 potentiator	gsp antag	ClpP mod	gsp ag	CtBP-E1A inh	Sfp PPTase inh
63	O=C(Nc1nc(-c2ccccn2)cs1)c1cc(S(=O)(=O)N2CCOCC2)ccc1F	/	-1	-14%	-6.4%	14%	?	/
66	NC(=O)CSc1nc2scc(-c3ccco3)c2c(=O)n1-c1ccccc1	19	-6	-9%	-0.4%	-28%	3	6.3µM*
53	Cn1nnnc1SCC(=O)NCCCc1ccccc1	1.3	11	3%	-2.8%	-24%	0	4%
